Assay outcomes from PubChem BioAssay.
MLL AF4-AF9 inh: blocks AF4 peptide binding to human AF9 | hit rate 0.47% among 350,000 | AlphaScreen, biotin-AF4 peptide binding to FLAG-AF9 | inhibition, % at 10 µM;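 active = every replicate reaching a set inhibition limit, whatever the replicate mean, cut at about 25% in these data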;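 note: 0% = plate neutral control median and 100% = total signal loss; the record names both 10 and 1 µM as test concentration; the first replicate is given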
Target sequence (P42568 whole entry, looked up): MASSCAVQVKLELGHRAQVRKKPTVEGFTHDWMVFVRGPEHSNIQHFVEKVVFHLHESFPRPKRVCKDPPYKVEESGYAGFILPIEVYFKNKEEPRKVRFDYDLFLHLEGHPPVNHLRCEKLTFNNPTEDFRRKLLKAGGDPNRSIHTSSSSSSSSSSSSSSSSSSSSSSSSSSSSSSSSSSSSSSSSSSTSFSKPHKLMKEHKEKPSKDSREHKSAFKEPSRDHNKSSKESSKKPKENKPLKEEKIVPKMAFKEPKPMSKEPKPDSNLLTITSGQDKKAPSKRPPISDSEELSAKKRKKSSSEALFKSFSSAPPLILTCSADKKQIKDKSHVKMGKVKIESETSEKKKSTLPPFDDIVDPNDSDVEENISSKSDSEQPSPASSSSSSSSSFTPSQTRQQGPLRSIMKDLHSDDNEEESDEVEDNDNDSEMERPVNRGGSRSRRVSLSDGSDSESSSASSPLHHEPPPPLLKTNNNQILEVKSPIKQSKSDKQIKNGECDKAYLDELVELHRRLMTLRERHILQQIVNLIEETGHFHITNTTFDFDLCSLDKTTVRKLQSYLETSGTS
FGF22 binding: shifts melting point of recombinant human FGF22. recombinant FGF22 thermal shift, SYPRO orange fluorescence; percent of sucrose octasulfate shift, DMSO zero. calls only at 9.99 µM. hit rate 1.5% among 340,000. AID 651658;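 active = melting point raised past a set limit in the mean and every replicate; three in four hits are not shown here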
Target sequence (Q9HCT0 whole entry, looked up): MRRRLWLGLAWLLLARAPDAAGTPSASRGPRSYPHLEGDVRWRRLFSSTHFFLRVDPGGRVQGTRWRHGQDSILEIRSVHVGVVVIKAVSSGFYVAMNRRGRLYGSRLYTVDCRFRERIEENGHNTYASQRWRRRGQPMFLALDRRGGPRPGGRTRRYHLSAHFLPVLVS
UCH37 DUB inh: blocks the human deubiquitinase UCH37; AID 588478; hit rate 0.33% among 330,000; purified proteasome/UCH37, Ub-AMC cleavage fluorescence; Q9Y5K5; inhibition, % (concentration not given with the values);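 active = mean of two replicates above 20%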;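 note: 0% = compound-free wells with enzyme and 100% = wells lacking proteasome; stock transfer was 100 nL into about 20 µL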
Target sequence (Q9Y5K5 whole entry, looked up): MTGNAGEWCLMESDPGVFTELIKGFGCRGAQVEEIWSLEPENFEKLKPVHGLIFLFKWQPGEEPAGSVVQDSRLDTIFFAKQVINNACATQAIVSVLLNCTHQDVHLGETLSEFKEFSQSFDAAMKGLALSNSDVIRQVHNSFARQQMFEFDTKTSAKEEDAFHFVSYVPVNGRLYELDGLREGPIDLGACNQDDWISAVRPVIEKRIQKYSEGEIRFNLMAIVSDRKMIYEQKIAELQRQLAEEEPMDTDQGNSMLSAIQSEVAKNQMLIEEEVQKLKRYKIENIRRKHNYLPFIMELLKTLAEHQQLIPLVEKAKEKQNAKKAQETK
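Test system – human UCH37 enzyme supplied as purified proteasome complex · Incubation – 30 min preincubation with enzyme, 25 min cleavage at room temperature · Detection – AMC fluorescence from Ub-AMC cleavage, excitation 355 nm, emission 460 nm · Benchmarks – no-proteasome wells (full inhibition) and compound-free wells (no inhibition)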
rRNA inh HTS: inhibits bacterial ribosomal RNA function over humanized ribosomes; E. coli WT GFP vs humanized-ribosome RFP mutants, fluorescence, 24 h; active compounds read low; DMSO median 0, no signal -100; GFP signal change (wild-type ribosome), % (test concentration not listed); AID 720706; hit rate 1.6% among 350,000;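 active = significant combined selectivity score with lowered wild-type GFP, culture density cut under 30%, mutant RFP and density less affected; inactive = any of these conditions unmet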; note: one replicate is shown; some compounds called inactive have numbers as strong as hits
E coli growth: inhibitors of Escherichia coli growth; OD600, 23 h; active compounds read low; OD600 absorbance (test concentration not listed); hit rate 0.21% among 330,000; AID 1053175;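 active = OD600 absorbance below the run mean of sample wells minus 3.6 SD, in any replicate, cut at about 0.56 in these data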;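 note: stock transfer was 300 nL into about 60 µL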
T cruzi inh: blocks replication of Trypanosoma cruzi. T. cruzi beta-gal in NIH3T3, luminescence, 90 h. inhibition, % (test concentration not listed). hit rate 1.4% among 300,000;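 active = mean inhibition across valid replicates above about 55%, limit read from the data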;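 note: signal also drops with host cell toxicity which is not excluded here; 0% = plate median of DMSO wells and 100% = zero luminescence signal; higher percent means less beta-gal luminescence so fewer parasites; stock transfer was 50 nL into about 50 µL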
A1 inh: inhibitors of the anti-apoptotic protein A1, read as caspase activation | caspase activation, % (no concentration beside the values) | hit rate 0.066% among 330,000 | MEF A1-2A-BIM cells, Caspase-Glo 3/7 luminescence, 3 h; percent of clofoctol response, vehicle zero | AID 2462;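 active = over half of replicate activation scores above 10%, or exactly half above 10 with the replicate mean above 10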;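 note: wells of about 30 µL received 50 nL stock; many hits fall short of the cut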
Beta apoptosis: beta cell apoptosis inhibition | protection from apoptosis, % (test concentration not listed) | hit rate 0.8% among 300,000 | INS-1E cytokine-induced death, ATP luminescence, 48 h; percent of positive-control rescue, neutral wells zero;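 active = all replicates at 75% or more, or half of them and the mean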;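 note: 0% = cytokine-treated negative control wells and 100% = positive control rescue; higher means more ATP so stronger rescue from cytokine killing; wells of about 40 µL received 100 nL stock; the first replicate is given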
rRNA inh HTS OD600: further read-out of rRNA inh HTS, marked with its call; OD600 change, %; measured here: OD600 growth;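 optical density of the mix in the first replicate; 0 = DMSO median and -100 = no signal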
rRNA inh HTS RFP: recorded beside rRNA inh HTS, whose call it bears; RFP signal change, %; measured here: RFP humanized mutant strains;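 first replicate; 0 = DMSO median and -100 = no signal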
An asterisk follows results filed as active; i = inactive; nt = not tested or not shown; + = active, no number; & = joins results of further samples.

Start of the data: the first 3 entries, ahead of the listing:
compound	MLL AF4-AF9 inh	FGF22 binding	UCH37 DUB inh	rRNA inh HTS	rRNA inh HTS OD600	rRNA inh HTS RFP	E coli growth	T cruzi inh	A1 inh	Beta apoptosis
CCOC(=O)C1=C(C)N(CCCCCC(=O)O)C(=O)NC1c1ccccc1OC(=O)c1cccs1 (stereo not given)	-6.3	i	3.7	-1	13	2.2	0.67	nt	-0.2	-8
CCOC(=O)c1[nH]c(C)c(C(=O)NCc2ccco2)c1C	0.0	nt	2.2	2	3	0.7	0.74	-15	-0.7	-10
O=C(CCN1CCOCC1)NC12CC3CC(CC(C3)C1)C2	0.8	i	4.2	11	0	7.1	0.66	-2	1.3	-11

The list itself, previewed entries included:
compound	MLL AF4-AF9 inh	FGF22 binding	UCH37 DUB inh	rRNA inh HTS	rRNA inh HTS OD600	rRNA inh HTS RFP	E coli growth	T cruzi inh	A1 inh	Beta apoptosis
CCOC(=O)C1=C(C)N(CCCCCC(=O)O)C(=O)NC1c1ccccc1OC(=O)c1cccs1 (stereo not given)	-6.3	i	3.7	-1	13	2.2	0.67	nt	-0.2	-8
CCOC(=O)c1[nH]c(C)c(C(=O)NCc2ccco2)c1C	0.0	nt	2.2	2	3	0.7	0.74	-15	-0.7	-10
O=C(CCN1CCOCC1)NC12CC3CC(CC(C3)C1)C2	0.8	i	4.2	11	0	7.1	0.66	-2	1.3	-11
O=C(Cn1cnc2c(nnn2Cc2ccc(Cl)cc2)c1=O)NC1CCCC1	nt	nt	-3.0	nt	nt	nt	0.69	-7	0.3	6
Cc1ccc(NS(=O)(=O)c2ccc(OCC(N)=O)cc2)cc1	-4.7	i	1.6	13	11	2.8	0.69	-20	1.2	-12
COCCCNC(=O)CSc1nc2cc(C(=O)NCCOC)ccc2c(=O)n1Cc1ccc2c(c1)OCO2	-1.5	i	5.1	9	9	0.5	0.63	10	0.4	11
O=C(NCc1cccs1)C1CCN(S(=O)(=O)c2cccc3cccnc23)CC1	-3.2	i	0.9	0	2	-1.9	0.76	-13	0.5	-4
COc1ccc(OCCOC(=O)c2cccc(-n3cnnn3)c2)cc1	nt	nt	-2.5	nt	nt	nt	0.69	-11	2.1	-4
CC(C)(C)C(=O)/C=C(\N)c1ccncc1	nt	nt	7.6	nt	nt	nt	0.76	1	1.4	-3
O=C(c1ccccc1F)N1CCN(c2ccc([N+](=O)[O-])c3ncccc23)CC1	nt	nt	1.1	nt	nt	nt	0.67	-16	-0.3	0
Cc1cc(Br)cc(Br)c1OCC(=O)NNC(=O)Nc1ccccc1	0.8	i	-0.2	22	12	2.5	0.69	-26	-0.5	-4
CCc1nnc(NS(=O)(=O)c2ccc(NC(=O)c3cc(Cl)ccc3Cl)cc2)s1	-1.5	nt	1.4	-49	-73	-18	0.72	-5	0.3	3
CC(=O)N1CCN(S(=O)(=O)c2ccc(S(=O)(=O)NC3CC3)cc2)CC1	nt	nt	3.6	nt	nt	nt	0.7	-2	0.1	4
CC1=NN(C(N)=S)C(=O)C1N=Nc1ccc(C)c(Br)c1 (stereo not given)	0.9	i	9.8	2	6	1.3	0.62	-24	-6.8	37
CC1(/[N+]([O-])=C\c2ccccc2F)CCCCC1=O (stereo not given)	-1.7	i	1.0	16	7	-3.0	0.6	-11	0.3	3
O=C(NCc1nc2ccccc2[nH]1)C1=C[C@@H](c2ccc(Br)cc2)C[C@@H](OCCCCO)O1	-0.6&-1.3	i	5.7	-47	-72	-16	nt	6	0.2	-2
OCCN1CCN(CC(O)COc2ccc3ccccc3c2)CC1 (stereo not given)	-7.1	i	1.3&4.9	6&16	5&14	2.6&4.9	0.7&0.67	1	-0.6	7
Cc1c(C)n(CC(O)CN2CCCCC2)c2ccccc12 (stereo not given)	nt	nt	0.4	nt	nt	nt	0.67	7	1.2	-6
CNC(=O)Cn1c(=O)n(C)c2ccccc21	nt	nt	0.4	nt	nt	nt	0.76	-3	0.4	-4
O=C(NCc1ccccc1)c1nnc(CS(=O)(=O)c2ccccc2)o1	-5.6	i	1.0	3	3	0.8	0.73	-19	0.4	3
CC1CCN(C(=O)c2[nH]cnc2C(=O)NCC(=O)OC(C)(C)C)CC1	0.3	i	4.4	-1	1	3.4	0.69	-7	0.4	0
CC(C)CN(CC(C)C)C(=O)Nc1ccc(F)cc1F	-56	i	2.0	2	8	0.5	0.72	-10	0.8	-2
Cc1ccc(C(c2nnnn2CS(=O)(=O)c2ccc(C)cc2)N2CCC(C(N)=O)CC2)cc1 (stereo not given)	nt	nt	1.4	nt	nt	nt	0.76	-17	-0.6	2
Cn1c(=O)c(=O)n(C)c2cc(S(=O)(=O)N3CCCCCC3)ccc21	nt	nt	-0.8	nt	nt	nt	0.72	-10	0.1	-1
COc1cc(/C=C/C(=O)c2ccc3c(c2)OCO3)cc(OC)c1OC	nt	nt	2.0	0	-4	-0.4	0.72	nt	0.1	-53
CCCCCCC(=O)Oc1ccc(N2C(=O)CCC2=O)cc1	-2.3	i	2.0	-5	-11	-0.2	0.72	-6	-0.8	-5
CN(Cc1cc2ccccc2[nH]c1=O)C(=O)C1CCCCC1	nt	nt	3.9	nt	nt	nt	0.65	9	-0.1	-3
CS(=O)(=O)c1ccc2nc(NC(=O)c3ccc(Cl)nc3)sc2c1	-1.9	+	8.5	7	6	-0.7	0.61	10	-1.7	17
Cc1ccc(CNC(=O)CN(Cc2ccccc2)S(C)(=O)=O)cc1	nt	nt	1.1	nt	nt	nt	0.69	-8	0.5	0
Cn1c(SCC(=O)Nc2ccccc2Cl)nnc1C1CC1	0.3	i	0.6	5	5	2.8	0.66	-10	-0.1	-7
COCCN1CN=C(Nc2nc3ccccc3o2)NC1	nt	nt	3.0	nt	nt	nt	0.69	-12	0.0	-5
COc1ccc(C2SCCN2S(=O)(=O)c2ccccc2)cc1 (stereo not given)	-0.8	i	2.1	-35	-48	-5.6	0.68	6	0.5	1
Cc1c(-n2c(=S)[nH]c3ccccc3c2=O)c(=O)n(-c2ccccc2)n1C	nt	nt	3.2	nt	nt	nt	0.69	-6	-0.4	-4
Cc1ccc(S(=O)(=O)N2CCCC(C(=O)N3CCN(c4ccccc4)CC3)C2)cc1 (stereo not given)	4.4	i	3.4	-21	-21	-2.1	0.71	8	-0.1	-7
O=C(O)CCSc1nc(C(F)(F)F)cc(=O)n1-c1ccccc1	nt	nt	0.4	nt	nt	nt	0.67	-5	0.5	-2
CCOC(=O)Cc1csc(NC(=O)CSc2nc3sc(C(=O)O)c(C)c3c(=O)[nH]2)n1	nt	nt	3.7	nt	nt	nt	0.68	2	1.2	-9
Cc1ccc(S(=O)(=O)Nc2nc3ccccc3s2)cc1[N+](=O)[O-]	-2.4	+	1.8	26	17	-1.7	0.68	7	0.6	-1
CCCCOC(=O)C1C2CCC(O2)C1C(=O)OCC (stereo not given)	-8.4	i	1.3	26	14	3.4	0.65	nt	nt	nt
Cc1ccc(/C=N/Nc2nncn2N)cc1	0.3	i	nt	-2	-3	-11	nt	-28	-0.4	-10
COc1ccc(NC(=O)CSc2nc(-c3ccc(C)cc3)cc(C(F)(F)F)c2C#N)cc1	nt	nt	-0.3	nt	nt	nt	0.71	10	-0.2	-6
COc1cc(NC(=O)C2CCCN(S(=O)(=O)c3cnc[nH]3)C2)cc(OC)c1 (stereo not given)	-14	i	9.2	2	2	0.9	0.75	-6	0.5	-5
Cc1ccc(S(=O)(=O)c2cc3ccccc3oc2=O)cc1	nt	nt	-16	nt	nt	nt	0.69	-5	0.1	-14
CC(C)Sc1nc2ccsc2c(=O)[nH]1	-2.0	i	3.0	3	-3	-1.8	0.69	0	-0.5	-7
Cn1c(Sc2nc3ccccc3n2C)nc2ccccc21	nt	nt	4.3	nt	nt	nt	0.71	-2	-1.8	-17
O=C(Nc1ccccc1F)C1C2C=CC3(O2)C1C(=O)N(c1cccnc1)C3C(=O)NC1CCCCC1 (stereo not given)	nt	nt	-0.4	nt	nt	nt	0.71	1	1.3	2
CCSc1ccccc1C(=O)N1CCC2(CC1)CC(=O)c1ccccc1O2	1.8	i	-15	-21	-21	-4.5	0.61	-10	0.2	nt
COc1ccc(/C=N/Nc2ccccn2)cc1O	0.2	i	nt	7	3	4.5	nt	3	-0.6	-1
O=C(O)C1CCCCC1C(=O)Nc1ccc2c(c1)CCC2 (stereo not given)	nt	nt	-1.4	nt	nt	nt	0.71	-18	-0.2	-4
CCc1ccc(NC(=O)CC2C(=O)NCCN2C(=O)c2ccccc2OC)cc1 (stereo not given)	-3.8	i	0.5	-2	-1	1.3	0.74	0	0.2	-1
CC(=O)Nc1cccc(C(=O)N2CCN(S(=O)(=O)c3ccc(C4CCCCC4)cc3)CC2)c1	5.7	i	-1.9	2	-21	8.6	0.64	nt	nt	nt
COc1ccc(CCNC(=O)Cn2nc([N+](=O)[O-])c(Br)c2C)cc1OC	14	i	1.5	3	13	-3.2	0.61	2	0.0	-4
CC(=O)Nc1ccc(NC(=O)CSc2nc3nc(C)cc(C)c3c(=O)[nH]2)cc1	-12	i	2.9	1	6	-2.4	0.69	-8	1.4	1
O=C(O)c1cc2nc(-c3ccccc3)cc(-c3ccccc3)n2n1	-2.6	i	-43	4	-3	-3.5	0.7	1	0.4	-3
CCN(CC)CCSc1nnc(Nc2ccccc2)n1-c1ccccc1	0.0	i	0.2	10	6	2.0	0.7	13	2.6	nt
Cc1ccc2c(c1)NC(=O)c1cc([N+](=O)[O-])ccc1O2	-2.2	i	1.7	7	-14	-4.4	0.7	-10	-0.3	6
Cc1cccc([C@@H]2[C@@H]3C(=O)N(Cc4ccccc4)C(=O)[C@@H]3[C@]3(C)C(=O)N(c4ccc(C(F)(F)F)cc4)C(=O)N23)c1	nt	nt	-0.2	nt	nt	nt	nt	17	0.2	9
O=C(O)CCOc1ccc2c(c1)OCCO2	nt	nt	2.9	nt	nt	nt	0.73	-10	-1.0	1
O=C(Nc1ncccn1)c1ccc(C(F)(F)F)cc1	nt	nt	3.5	nt	nt	nt	0.61	-10	-1.9	-5
O=C(CSc1nnc(-c2cccnc2)o1)c1cc2ccccc2oc1=O	nt	nt	-1.0	nt	nt	nt	0.76	-15	-0.2	-3
Cc1cc(-c2ccccc2)nc2cc(C(=O)NCc3ccco3)nn12	-2.7	i	-32	16	12	-2.5	0.74	1	-1.9	-6
COCCN(C(=S)Nc1ccccc1OC)C1CCN(C(C)=O)CC1	nt	nt	2.2	nt	nt	nt	0.67	-12	-0.8	2
COc1ccc2nc(SCC(=O)NC(C)c3ccccc3)[nH]c2c1 (stereo not given)	3.4	i	1.4	-2	-10	1.1	0.7	nt	0.4	6
O=C(CC1C(=O)NCCN1C(=O)Nc1ccccc1)Nc1ccc2c(c1)OCCO2 (stereo not given)	nt	nt	1.7	nt	nt	nt	0.63	9	0.5	0

Only part of the results is shown; rates above refer to the full screens.
